D2 ag = agonists of human D2 dopamine receptor (beta-arrestin); activation, % (no concentration beside the values); AID 624465; P14416; hit rate 0.084% among 360,000; DiscoveRx PathHunter D2 beta-arrestin, luminescence, 90 min; 100% = 57 uM dopamine signal; in the data active = activation above about 40%; inconclusive = about 15% to 40%; inactive = below about 15%; also: compound concentration not given in the record; the text of the record calls up to 30% inactive
Target sequence (P14416 whole entry, looked up): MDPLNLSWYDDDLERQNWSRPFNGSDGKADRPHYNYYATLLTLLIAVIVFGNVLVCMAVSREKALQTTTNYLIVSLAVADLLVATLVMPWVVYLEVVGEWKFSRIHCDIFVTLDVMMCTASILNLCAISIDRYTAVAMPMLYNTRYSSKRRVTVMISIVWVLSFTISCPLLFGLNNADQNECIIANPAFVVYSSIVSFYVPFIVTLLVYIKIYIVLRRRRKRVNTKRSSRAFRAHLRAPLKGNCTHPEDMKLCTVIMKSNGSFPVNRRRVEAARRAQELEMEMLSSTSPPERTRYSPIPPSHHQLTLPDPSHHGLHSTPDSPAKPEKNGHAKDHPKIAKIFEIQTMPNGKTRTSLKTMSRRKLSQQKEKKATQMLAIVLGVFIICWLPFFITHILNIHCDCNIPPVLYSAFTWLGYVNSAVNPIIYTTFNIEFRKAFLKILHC
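Agonist mode: compounds alone added to overnight-plated D2 PathHunter cells for 90 min at 37 C, with 57 uM final dopamine (EC100) defining full response. Beta-arrestin recruitment detected by chemiluminescent reagent, read after 1 h at ambient temperature.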
Sfp inh = inhibitors of Bacillus subtilis Sfp phosphopantetheinyl transferase | AID 1490 | Potency, µM, for inactives: max response, negative = inhibition, usual class: inhibitors | Q9F4F7 | Biochemical Sfp PPTase activity, qHTS | hit rate 3.5% among 310,000; active = well fitted inhibition curve with a large enough effect; inconclusive = small, poorly fitted or top-dose-only effect, or another doubt; inactive = no such curve, though single readings can be large or run the other way;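 also: the enzyme is Sfp with the accession as filed and its product quenches rhodamine fluorescence; potency is read from the fitted curve at half-maximal effect; 0% = enzyme reaction without inhibitor and -100% = no enzyme wells; top concentration of the series not given in the record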
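Reaction rates are the 30-min fluorescence difference (ex 525, em 598 nm) in wells containing 15 nM Sfp, 5 uM rhodamine-CoA and 12.5 uM BHQ-2-YbbR at pH 7.6 with 10 mM MgCl2.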
gsp antag = antagonists of gsp mutant (McCune-Albright syndrome) | gsp-mutant cells, cAMP HTRF, 30 min; control for the full effect not named in the record | hit rate 0.4% among 340,000 | Potency, µM (titrated, usually from 76.9 µM), inactives show at the highest dose activity change, negative = inhibition, hits mostly inhibitors; active = falling curve of any shape with a large fitted effect; inconclusive = falling curve, mostly with a smaller effect; inactive = flat or rising curve; cell line not stated here;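 also: intracellular cAMP measured with PDE inhibitor Ro 20-1724 present during compound exposure; potency is read from the fitted curve at half-maximal effect; % is scaled to controls: 0 for no effect and ±100 for the full control effect; nearly all actives have a fitted effect of over 65% in size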
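HTRF cAMP measurement after 30 min RT detection following 30 min, 37C compound treatment alongside […] (added as 300 uM solution) in G418-selected cells seeded at 2000/well and grown 16–24 h.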
gsp agonist = agonists of gsp mutant (McCune-Albright syndrome); gsp mutant cells, cAMP HTRF, 30 min; control for the full effect not named in the record; Potency, µM (series often up to 76.9 µM), for the others: at the highest dose activation (cAMP increase), hits mostly activators; hit rate 0.13% among 340,000; active = well fitted activation curve with a large enough effect; inconclusive = small, poorly fitted or top-dose-only effect, or another doubt; inactive = no such curve, though single readings can be large or run the other way; cell line not stated here;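 also: phosphodiesterase inhibitor Ro 20-1724 added with compounds to block cAMP breakdown; potency is read from the fitted curve at half-maximal effect; nearly all actives have a fitted effect of over 60% in size; about a fifth of the inactives were tested at one dose only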
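Cells in DMEM/10% FBS with G418 were pretreated with compounds in DMSO plus […] (300 uM stock) for 30 min at 37C. cAMP was measured by HTRF (cAMP-d2 plus anti-cAMP antibody-K) after 30 min at room temperature.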
ClpP mod = qHTS Assay for Activators of ClpP; ATP-dependent Clp protease proteolytic subunit (Bacillus subtilis (strain 168)), P80244; purified B. subtilis ClpP, FRET peptide cleavage, 20 min; Potency, µM (titrated, usually from 57.5 µM), for the others: at the top dose activity change, negative = active; hit rate 1.9% among 340,000; active = well fitted falling curve with a large enough effect; inconclusive = small, poorly fitted or top-dose-only effect; inactive = no such curve, though single readings can be large or run the other way; also: potency is read from the fitted curve at half-maximal effect; the source files actives as falling curves though it sought activators and does not explain the sign; nearly all actives have a fitted effect of over 65% in size; many hits overshoot -100%
Target sequence (P80244 whole entry, looked up): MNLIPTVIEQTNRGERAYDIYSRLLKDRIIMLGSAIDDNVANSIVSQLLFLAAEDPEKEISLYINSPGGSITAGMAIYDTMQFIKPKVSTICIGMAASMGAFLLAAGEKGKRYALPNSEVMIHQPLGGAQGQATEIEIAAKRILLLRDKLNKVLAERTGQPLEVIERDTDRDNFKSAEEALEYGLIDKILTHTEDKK
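ClpP 10 microg/mL final, pH 8 Tris/KCl buffer with BSA, glycerol, Tween-20; compound pinned in; FRET-FV substrate; RT 20 min; Ex320/Em430; ΔFRET vs ADEP 5.8 microM, DMSO, no enzyme.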
PINK1 modulator = changes PINK1 expression. PINK1 immunofluorescence, high-content cytometry, 24 h. Potency, µM (top dose mostly 76.6 µM), for inactives: top-dose activation (PINK1 increase), usual class: activators. hit rate 0.2% among 410,000. AID 624263; active = well fitted activation curve with a large enough effect; inconclusive = small, poorly fitted or top-dose-only effect; inactive = flat fitted curve, though single readings scatter; cell line not stated here;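 also: potency is read from the fitted curve at half-maximal effect; % of control where 0% means no effect; nearly all actives have a fitted effect of over 65% in size; a mitochondrial uncoupler was the plate control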
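Compound titrations (5 concentrations, 24 h) on a stable cell line; DMSO and CCCP controls. Endpoint: fixed-cell PINK1 immunofluorescence with mitochondrial, cell and nuclear markers, scanned by microplate cytometer.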
Menin-MLL FL inh = inhibitors of human menin-MLL interaction, wild-type MLL peptide. Fluorescence polarization, fluorescein-MLL peptide displacement from menin. FP activity change, % at 61.4 µM. 290,000 tested, under 10 active. AID 1766; inconclusive = falling polarisation curve, or a change in total fluorescence; inactive = total fluorescence flat and polarisation flat or rising; no compound was filed as active; the % refers to the polarisation; negative = inhibition;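 also: % of control where 0% means no effect; inhibitors lower the polarisation; unlabelled MLL peptide was the positive control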
Active calls of the source: *; ? = inconclusive; nt = no result given; & = joins results of further samples; [ ] = dose if it differs, or a comment. This is a random part of the collection. About 5.1% of those tested had a hit in this group.

SMILES	D2 ag	Sfp inh	gsp antag	gsp agonist	ClpP mod	PINK1 modulator	Menin-MLL FL inh
Cn1c(SCC(=O)NCC2CCCO2)nnc1-c1cccc(NC(=O)c2ccccc2F)c1 (centres undefined)	0.1	20.4%	-5.2%	-9.4%[15.4 µM]	nt	2.3%	0.4
CC1(C(=O)Nc2nccs2)CCN1C(=O)C1(c2ccccc2)CC1 (centres undefined)	0.8	nt	nt	nt	1.9%	-0.3%	nt
COCCn1c(=O)[nH]c2cc(C(=O)N3CCN(c4cccc(C(F)(F)F)c4)CC3)ccc2c1=O	2.1	7.0%	-16.3%	-41.5%[inhibitor]	nt	4.1%	-2.1
COc1cc(CNC2CCCCCCC2)cc(Cl)c1OC	-0.3	2.9%	11.5%	-51.0%[15.4 µM]	0.6%	14.7%	4.8
O=C(COC(=O)/C=C/c1cccc(C(F)(F)F)c1)NC1CCS(=O)(=O)C1 (centres undefined)	-4.0	nt	6.4%	2.5%	1.3%	0.3%	nt
OCCN1CCN(c2nc(N3CCCCC3)nc(N3CCCCC3)n2)CC1	-2.2	6.2%	15.0%	-5.1%	0.0%	0.1%	1.7
O=C(COc1ccccc1)N[C@@H]1c2ccccc2CC[C@@H]1OCc1ccccc1	-4.1	nt	-15.8%	nt	3.2%	7.4%	nt
C=C(C)COc1cc2oc(=O)c(CC(=O)N3C[C@H]4C[C@@H](C3)c3cccc(=O)n3C4)c(C)c2cc1Cl	1.5	2.1%	-30.7%	nt	5.0%	2.0%	-2.4
CC(=O)Nc1ccc(NC(=O)C(C)OC(=O)CNS(=O)(=O)/C=C/c2ccc(C)cc2)cc1 (centres undefined)	-2.6	nt	7.4%	-3.5%[15.4 µM]	-3.0%	-0.6%	nt
CCCn1nnc(NC(=O)COc2ccc(Cl)cc2)n1	4.1	8.3%	-2.4%	-11.0%	1.1%	-1.0%	1.0
CC(CCc1ccccc1)NC(=O)COC(=O)CC1CC2CCC1C2 (centres undefined)	1.1	6.8%	5.6%	-55.3%[inhibitor]	1.0%	0.1%	3.9
COc1ccc(-c2nnnn2C(C)C)cc1	0.7	0.4%	4.6%	5.1%[15.4 µM]	-2.0%	0.4%	-1.7
CCc1nnc(NC(=O)c2ccc(S(=O)(=O)N3CCCC3)cc2)s1	-1.6	23.3%	-7.1%	-5.4%[15.4 µM]	nt	1.2%	-0.1
COC(=O)/C(=C\c1ccc([N+](=O)[O-])o1)NC(=O)c1ccccc1	1.4	9.7%	-9.6%	-37.1%[inhibitor]	0.4%	3.3%	13.2
CCOC(=O)c1c(NC(=O)Cn2nc([N+](=O)[O-])c(Br)c2C)sc2c1CCC(C)C2 (centres undefined)	-4.3	1.1%	9.8%	?	0.7%	7.5%	1.0
Cc1cc(=O)nc2c3ccccc3n(C(C)C(=O)NCCC(C)C)n12 (centres undefined)	-4.3	16.9%	-0.8%	18.6%	1.5%	-0.1%	1.0
COc1ccccc1CNC(=O)COC(=O)c1cccs1	-3.2	nt	4.8%	-15.9%	-2.0%	-1.1%	nt
COc1ccc2c(c1)sc(=N)n2CC(=O)Nc1cc(C)cc(C)c1	-3.1	5.1%	5.5%	15.4%[15.4 µM]	nt	-1.8%	1.3
O=C1C(c2ccc(F)cc2)N(CC2COc3ccccc3O2)C(=O)CN1C1CCCCC1 (centres undefined)	-3.4	-2.5%	0.3%	2.5%	-0.4%	-1.0%[38.3 µM]	0.0
CC(=O)Nc1cccc(OCC(=O)/C=C2\N(C)c3ccccc3C2(C)C)c1	2.0	-18.0%	-10.7%	14.4%[15.4 µM]	-0.8%	5.7%	?
Cc1ccc2c(c1)N(Cc1ccncc1)C(=O)C(C)O2 (centres undefined)	-1.3	-6.9%	4.2%	-42.9%	-6.8%	0.1%	1.1
COCCn1c(SC(C)C(=O)Nc2ccc3c(c2)OCCO3)nc2ccccc2c1=O (centres undefined)	-4.2	-2.9%	15.2%	18.4%	0.4%	-0.9%	-2.1
CCn1c2ccccc2c2cc(NC(=O)N3CCOCC3)ccc21	?	-2.6%	-3.5%	-46.5%[inhibitor]	?	-0.7%	14.6
COC(=O)c1sccc1NC(=O)Nc1cccc(C(C)=O)c1	-18.9	11.5%	-14.6%	10.3%	-6.0%	-0.2%	-2.5
CCOC(=O)c1c(C)[nH]c(C(=O)CN2C(=O)NC(C)(C)C2=O)c1C	-1.5	nt	1.9%	8.7%[15.4 µM]	-1.4%	1.9%	nt
Brc1ccccc1OCCN1CCCC1	5.9	nt	1.6%	-0.3%	nt	0.9%	nt
COc1cc(CN2CCNC(=O)C2CC(=O)N(C)CCCN2CCOCC2)cc(OC)c1 (centres undefined)	-4.0	2.9%	23.2%	?	-1.6%	0.0%	-3.4
Cn1c(=O)c(CCc2ccccc2)nc2cnc(N3CCOCC3)nc21	nt	10.1%	nt	nt	nt	1.2%	1.8
COc1ccc(C(=O)NCCn2ccc3ccccc32)cc1OC	-3.1	-4.3%	1.4%	-45.4%	-2.3%	0.9%	-0.8
CCCNC(=O)c1cc(C2CCCN(C(=O)c3ccc4c(c3)CCO4)C2)on1 (centres undefined)	-2.4	nt	nt	nt	1.8%	-0.5%	nt
Cc1ccccc1OCCCCn1c(CO)nc2ccccc21	1.8	4.3%	-4.4%	?	nt	-0.8%	-2.7
Cc1ccccc1N(CC(=O)NCc1ccc2c(c1)OCO2)C(=O)CCC(=O)Nc1ccccn1	-0.2	11.0%	-8.5%	-42.9%	0.4%	-0.2%	-1.0
CCOC(=O)[C@H]1[C@H]2COc3ccccc3[C@@H]2N2C(=O)c3cc(OC)c(OC)cc3NC(=O)[C@@]12C	0.4	nt	-2.9%	3.5%	-3.0%	2.0%	nt
COc1ccc(NC(=O)c2cc(CC(C)C)nc3ccccc23)cc1	0.4	10.1%	-10.8%	-50.3%[inhibitor]	-0.1%	0.7%	2.9
COc1ccccc1NC(=O)c1cc(C(=O)Nc2ccccc2OC)cc(N2C(=O)CCC2=O)c1	-2.0	-9.8%	5.1%	7.1%[15.4 µM]	0.0%	4.4%	1.1
O=C1NC(=O)c2cc(NC(=O)C3CCCCC3)ccc21	0.4	14.3%	-10.5%	-15.0%	25.1µM*	0.9%[38.3 µM]	-2.9
Cc1cc(C)c(NC(=O)COC(=O)c2ccncc2)c(C)c1	-1.0	nt	2.8%	19.3%	nt	-2.5%	nt
Cn1c(=O)n(Cc2ccccc2F)c(=O)c2c1nc1n2CCCN1CCc1ccccc1	-3.9	16.3%	-0.1%	10.3%	-3.0%	19.4%	0.5
COc1ccccc1-c1nnc(SCC(=O)Nc2cc(C)on2)o1	1.2	?	-2.0%	-2.9%	0.0%	0.5%	0.2
CN1CCN(C(=O)CCN2C(=O)S/C(=C/c3ccc(Cl)cc3)C2=O)CC1	2.5	-23.4%	-8.1%	-7.6%[15.4 µM]	nt	0.8%	0.8
Cc1nn(C)cc1/C=N/NC(=O)Cn1nnc(N)n1	-4.0	-14.1%	3.4%	12.4%[15.4 µM]	-0.7%	-0.5%	1.0
COc1ccc(N(CC(=O)NCc2cccnc2)S(=O)(=O)c2c(C)nn(C)c2C)cc1	1.4	15.3%	-6.6%	0.0%	-0.2%	1.0%	1.0
Cc1ccc(NC(=O)CN2C(=O)CCSc3ccc(S(=O)(=O)N4CCCC4)cc32)cc1C	-3.7	-2.1%	-8.3%	9.1%	0.2%&-3.4%	0.6%&-0.6%	2.6
CN(C(=O)CSc1nc2ccccc2n1CCc1ccccc1)C1CCS(=O)(=O)C1 (centres undefined)	-3.5	-22.7%	6.0%	0.4%	0.1%	2.7%	-0.3
CCOC(=O)N1CCC(N2C(=O)c3ccccc3C2Nc2ccccc2C)CC1 (centres undefined)	-3.5	8.1%	-7.6%	-20.7%	0.2%	-1.3%	1.1
COCCNC(=O)/C(C#N)=C/c1c(N2CC(C)OC(C)C2)nc2ccccn2c1=O (centres undefined)	-5.6	10.3%	21.8%	?	-22.1%	1.8%	5.6
O=c1[nH]nc(CNc2ccc(OC(F)(F)F)cc2)c2ccccc12	0.4	11.7%	-10.9%	6.6%	-0.4%	3.1%	-1.6
CCCCn1c(N)c(N(Cc2ccccc2OC)C(=O)C2=COCCO2)c(=O)[nH]c1=O	-1.1	nt	8.4%	-7.6%[15.4 µM]	nt	-2.5%	nt
Cc1nnc(NC(=O)NCN2C(=O)C3C4C=CC(C4)C3C2=O)s1 (centres undefined)	0.0	13.5%	3.7%	-4.7%	62.2%	0.3%	0.0
O=C(COC(=O)c1ccc(Cl)nc1)NC1CCCc2ccccc21 (centres undefined)	-1.1	nt	6.4%	-1.4%[15.4 µM]	-1.3%	0.2%	nt
Clc1ccc(-c2nnc3c4ccccc4nc(N4CCOCC4)n23)cc1Cl	0.2	-0.8%	-26.8%	-4.5%	-15.1%	2.1%	1.6
CCOC(=O)c1cn2nc(N3CCCCC3)ccc2n1	-4.0	-4.1%	-2.6%	10.6%[15.4 µM]	nt	1.7%	0.8
CCC(=O)c1cn(CC(=O)Nc2ccc(C)cc2C)c2ccccc12	-3.1	10.7%	3.0%	0.3%[15.4 µM]	0.1%	9.1%	-0.1
CSc1nc2sc3c(c2c(=O)n1C)CCC3	-2.6	-2.7%	4.6%	-4.3%	-0.5%	-0.5%	-0.1
O=C(N/N=C1\SCC(=O)N1CCc1ccccc1)c1cccs1	3.5	1.0%	4.4%	-2.8%	nt	-2.7%	-0.1
COc1ccc(C(=O)N2CCC3(CCN(C(=O)Nc4ccccc4)CC3)CC2)cc1	nt	12.7%	nt	nt	nt	0.1%	-2.4
Nc1cc(=O)[nH]c(SCC(=O)Nc2cc(Cl)cc(Cl)c2)n1	-1.6	14.0%	-8.8%	-33.3%[inhibitor]	0.9%	6.9%	0.8
O=[N+]([O-])c1ccc(CS(=O)(=O)c2ccc(Cl)cc2)cc1	7.0	5.9%	4.4%	?	-2.5%	3.2%	5.6
Cc1ccc(-n2c(CNc3ccc(F)cc3)nnc2SCC(=O)NCc2ccco2)cc1	-3.7	1.0%	-5.3%	-19.5%	-0.2%	0.2%	3.4
O=C(NCC(F)(F)F)c1[nH]c(C(F)(F)F)nc1-c1ccccc1	-0.6	nt	nt	nt	0.2%	1.9%	nt
O=C1c2ccccc2C(=O)N1CCCOCc1c[nH]c(=O)[nH]c1=O	-3.0	16.8%	9.6%	21.6%	0.3%	-0.6%	1.1

Compound activity: PubChem BioAssay, National Center for Advancing Translational Sciences (NCATS)
